From PubChem BioAssay
VDR inh: inhibitors of human vitamin D receptor. P11473. VDR-SRC2-3 peptide fluorescence polarization, 2 h. Potency, µM, inactives show max response, negative = inhibition, hits mostly inhibitors. 400,000 tested, 0.93% active. AID 504847; active = well fitted inhibition curve with a large enough effect; inconclusive = small, poorly fitted or top-dose-only effect, or another doubt; inactive = no such curve, though single readings can be large or run the other way; note: series mostly up to about 120 µM
Target sequence (P11473 whole entry, looked up): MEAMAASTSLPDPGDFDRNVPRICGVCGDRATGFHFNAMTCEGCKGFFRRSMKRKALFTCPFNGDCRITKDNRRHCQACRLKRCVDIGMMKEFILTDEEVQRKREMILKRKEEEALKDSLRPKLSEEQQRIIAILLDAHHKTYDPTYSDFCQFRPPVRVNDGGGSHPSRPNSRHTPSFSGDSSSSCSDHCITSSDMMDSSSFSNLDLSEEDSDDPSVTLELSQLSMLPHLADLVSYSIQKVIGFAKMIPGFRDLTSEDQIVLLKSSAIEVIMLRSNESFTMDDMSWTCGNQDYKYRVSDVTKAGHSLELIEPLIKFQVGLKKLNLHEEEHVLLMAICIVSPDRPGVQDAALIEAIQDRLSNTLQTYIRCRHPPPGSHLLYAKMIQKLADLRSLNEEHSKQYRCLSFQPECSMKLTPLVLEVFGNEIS
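Fluorescence polarization assay measuring small-molecule disruption of VDR binding to the coregulator peptide SRC2-3. Compounds were pin-transferred (23 nl) into the reagent mix and incubated 2 h at room temperature before reading.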
* = called active by the depositor; ? = inconclusive; & = joins results of further samples. % is set by controls: 0 for no effect and ±100 for the full control effect; potency is the fitted concentration of half-maximal effect.

Structure	VDR inh
CC(C)(C)c1ccc(-c2nc(C#N)c(N3CCC(C(N)=O)CC3)o2)cc1	-4%
CCOc1ccc(N2C(=O)CC(N(CCc3ccc(OC)cc3)C(=O)c3cccc(F)c3)C2=O)cc1 (stereo not given)	7%
O=C(COc1ccccc1Cl)c1ccc[nH]1	12%
C=CCNC(=S)N1CCN(c2ccccc2Cl)CC1	-10%
COc1ccc(N2CCN(C(=O)c3ccc(S(=O)(=O)N4CCCCCC4)cc3)CC2)cc1	7%
COc1cccc(CCNc2ncnc3c2nnn3C)c1	8%
CCN(C(=O)COC(=O)C12CC3CC(CC(NC(C)=O)(C3)C1)C2)C1CCCCC1	0%
O=C(CNC(=O)OCc1ccccc1)Nc1ccc(F)cc1	-23%
Cc1ccc(-c2noc(CN(C(=O)CCCN3C(=O)c4ccccc4C3=O)C(C)C)n2)cc1	-12%
Cc1ccc(C(=O)NNC(=O)c2ccc(C)cc2)cc1	4%
COc1ccc(S(=O)(=O)Nc2cccc3cccnc23)cc1	6%
N=C1C(c2ccccc2)=C(O)CN1NC(=O)c1ccccc1	-16%
O=C(Cn1c(=O)cnc2ccccc21)NCC(=O)Nc1ccc(F)c(F)c1	-3%
COc1cc(OC)cc(C(=O)N2CCN(c3ncccn3)CC2)c1	14%
Nc1c(N(CCC2=CCCCC2)C(=O)Cc2ccccc2F)c(=O)[nH]c(=O)n1Cc1ccccc1	0%
COC(=O)/C=C/c1ccc(-n2cncn2)cc1	9%
COc1ccccc1Cc1nc2ccccc2nc1SCC(=O)N1CCc2ccccc21	1%
CCN(CC)S(=O)(=O)c1ccc(C(=O)NCCN2C(=O)S/C(=C\c3cccnc3)C2=O)cc1	11%
CCCC(=O)NC(c1ccco1)c1cc(Cl)c2cccnc2c1O (stereo not given)	3%
COc1ccc(C(=O)NC(C)CCc2ccccc2)c(O)c1 (stereo not given)	3%
Cc1ccc(C(=O)NNC(=O)c2cc(OCC(F)(F)F)ccc2OCC(F)(F)F)cc1	-4%
CC(C)Nc1cc(N2CCN(C3CCCCC3)CC2)c2noc3c2c1C(=O)c1ccccc1-3	-24%
Cn1c(=O)c2cc(S(=O)(=O)NC(C(=O)NC3CCCCC3)c3ccccc3)ccc2n(C)c1=O (stereo not given)	-5%
CC(C)CC(=O)N[C@H](C(=O)N[C@H](C(=O)N[C@@H](CC(C)C)[C@@H](O)CC(=O)N[C@@H](C)C(=O)N[C@@H](CC(C)C)[C@@H](O)CC(=O)O)C(C)C)C(C)C	?
C/C(=N\Nc1nc(N)cc(Cl)n1)c1ccc(Cl)c(Cl)c1	-9%
C[C@@H](CO)NC(=O)c1ccc2c3n(nc2c1)-c1ccc(Cl)cc1CO3	-11%
CCN1C(=O)C2(C(C(=O)c3ccc(C)o3)=C(O)C(=O)N2CCCN2CCOCC2)c2ccccc21 (stereo not given)	-3%
Cc1ccc(N2CCN(S(=O)(=O)c3nnc(NC(=O)c4cccc(F)c4)s3)CC2)cc1	9%
Cc1ccc(NS(=O)(=O)c2cc(C(=O)Nc3cccc([N+](=O)[O-])c3)ccc2C)cc1	-10%
Cc1ccc(S(=O)(=O)N2CCOCC2)cc1NC(=O)Cn1cc(C(F)(F)F)cc(Cl)c1=O	0%
O=C(NCC(c1cccnc1)N1CCOCC1)C1CCCCC1 (stereo not given)	-5%
O=c1oc2ccc3ccccc3c2cc1-c1nc2ccccc2o1	3%
COc1ccccc1NS(=O)(=O)c1cccc(NC(=O)c2nc3nc(C)cc(C)n3n2)c1	-4%
COc1ccc(NC(C)=O)cc1CNC(=O)CN1CCOCC1	-9%
CC1CN(C(=O)COC(=O)c2ccc(Cl)c(S(=O)(=O)N3CCCCC3)c2)CC(C)O1 (stereo not given)	6%
CC(C)CCN1C(=O)c2ccc(-c3nc4ccccc4c(=O)o3)cc2C1=O	1%
Cc1ccnc(NC(=O)c2sc3cc(Cl)ccc3c2Cl)c1	-6%
CCOC(=O)C(=NC1CCS(=O)(=O)C1)NNc1ccc(Br)cc1 (stereo not given)	-3%
Cc1cnc(NC(=O)CSc2nc3ccccc3c(=O)[nH]2)s1	-4%
COc1ccc(CNC(=O)CSc2ncc3c(n2)-c2ccc(Cl)cc2N(Cc2ccccc2)S3(=O)=O)cc1	4%
Cc1ccc(S(=O)(=O)N(C)CC(=O)NCC(=O)Nc2ccc(F)c(F)c2F)cc1	6%
N#CC1=C(N)Oc2cc(O)ccc2C1c1ccc(Br)s1 (stereo not given)	-16%
O=C(CSc1nnc(NC2CCCCC2)s1)Nc1ccc2c(c1)C(=O)c1ccccc1C2=O	21%
COCc1c(Br)c(C)nc2sc3c(=O)[nH]nnc3c12	-7%
CCOc1ccc2nc(N3CCOCC3)nc(C)c2c1	5%
c1ccc2c(NCC3CCCO3)nc(N3CCOCC3)nc2c1 (stereo not given)	-7%
O=S(=O)(c1ccc(Cl)c2ccccc12)N1CCCC1	17%
COc1cc(OC)nc(NC(=O)NS(=O)(=O)c2ccc(OC(F)(F)F)cc2)n1	12%
O=C(CN(c1ccccc1)S(=O)(=O)c1ccccc1[N+](=O)[O-])Nc1ccccc1C(=O)N1CCOCC1	6%
CC(C)c1ccc(N2C(=NC(=O)C3CC3)SC3CS(=O)(=O)CC32)cc1 (stereo not given)	7%
COc1ccc(C(C(=O)NCc2ccccc2)N(Cc2cccs2)C(=O)c2cnccn2)cc1 (stereo not given)	-8%
Cc1cc(C)nc(Nc2nc(=O)c3ccccc3s2)n1	-15%
CN(C)CCCNC(=O)N1c2ccccc2C=Cc2ccccc21	?
COC(=O)C1=C(N)Oc2cc(C)n(C)c(=O)c2C1c1ccc(Cl)c(Cl)c1 (stereo not given)	15%
CC(=O)Nc1nc2c(ccc3ccccc32)s1	-28%
COc1cccc(CN(C)C(=O)Cc2c[nH]c3ccccc23)c1	18%
CC(C(=O)N1CCN(C(=O)c2ccco2)CC1)N1C(=O)NC2(CCCCC2C)C1=O (stereo not given)	-5%
COc1ccc(NC(=O)NCC2CCN(Cc3ccccc3F)CC2)c(OC)c1	-2%
Cc1cccc(-c2nnc(SCC(=O)NC3CCCCC3)o2)c1	-15%
CN(C)/C=C/C(=O)c1ccc2noc(-c3ccc(F)cc3)c2c1	-10%

Random excerpt: 5 entries already listed.
Structure	VDR inh
Cc1ccnc(NC(=O)c2sc3cc(Cl)ccc3c2Cl)c1	-6%
O=C(CSc1nnc(NC2CCCCC2)s1)Nc1ccc2c(c1)C(=O)c1ccccc1C2=O	21%
Cc1ccc(C(=O)NNC(=O)c2cc(OCC(F)(F)F)ccc2OCC(F)(F)F)cc1	-4%
CCOc1ccc2nc(N3CCOCC3)nc(C)c2c1	5%
O=C(CNC(=O)OCc1ccccc1)Nc1ccc(F)cc1	-23%

Remaining list, next part.
Structure	VDR inh
CSc1ncccc1C(=O)OCC(=O)c1ccc(Br)s1	-27%
CC(=O)N(C(C)=O)N1C(=O)c2cccc3c(N4CCOCC4)ccc(c23)C1=O	-18%
COC(=O)c1cc(Cl)c(NC(=O)c2ccco2)cc1OC	15%
Cc1c(C)c2ccc(OCC(=O)NCCCn3ccnc3)c(C)c2oc1=O	2%
COc1ccccc1N(C)S(=O)(=O)c1ccc(Cl)c(C(=O)NCc2cccnc2)c1	-3%
Cc1cccc(C)c1OCc1nnc(SCC(=O)Nc2cccc(C(=O)N3CCOCC3)c2)n1C	-27%
CS(=O)(=O)c1nc(S(=O)(=O)c2ccc(Cl)cc2)c(N2CCC3(CC2)OCCO3)s1	0%
Cc1ccc(C)c(NC(=O)CS(=O)(=O)c2cccc3nsnc23)c1	16%
COc1ccc(Cl)cc1NC(=O)CNc1ccccc1N1CCOCC1	6%
O=C(Nc1cc(C(F)(F)F)ccc1N1CCOCC1)C1CC1	?
CCOC(=O)Cc1nnc(NC(=O)c2ccccc2OCC)s1	20%
O=C(O)CCn1cc(C(=O)O)c(-c2ccccc2)n1	5%
O=C(NCc1ccco1)c1ccc(S(=O)(=O)N2CCCc3ccccc32)cc1	-5%
Cc1cccc(NC(=O)CSCC(=O)N(C)Cc2ccc(Cl)c(Cl)c2)c1	4%
O=[N+]([O-])c1ccc(NC(=S)NCc2ccncc2)cc1	2%
Cc1cc(C)n(C(=O)COc2ccccc2[N+](=O)[O-])n1	0%
CCN1C(=O)N[C@@H](CCc2ccccc2)[C@H](C(=O)OC)[C@H]1C	2%
COCCNC(=O)COc1ccc(Nc2ccccc2)cc1	-23%
CN1C(=O)c2ccc(NC(=O)c3ccc(Cl)cc3Cl)cc2C1=O	-8%
Cc1ccc(NC(=O)c2cc(-c3ccc(Br)s3)nc3ccccc23)cc1F	-9%
COc1ccc(S(=O)(=O)NCc2ccc(C(=O)NCCCN3CCCC(C)C3)cc2)cc1 (stereo not given)	-7%
Cc1ccc(N(Cc2ccccc2)C(=O)c2cccc(F)c2)cc1	-5%
COc1ccc2c(Cl)c(-c3nnco3)sc2c1	3%
Cc1ccc(NC(=O)C(c2ccccc2)N2CCN(CC(=O)NC3CC3)CC2)cc1 (stereo not given)	-18%
CCOc1ccc(CNC(=O)c2cc(=O)[nH]c3ccc(S(=O)(=O)N4CCCC4)cc23)cc1	18%
CCOC(=O)c1ccccc1NCN1C(=O)CSC1=O	8%
Cc1ccc(NC(=S)N(CCN(C)C)Cc2cc3cc(C)cc(C)c3[nH]c2=O)cc1	-5%
Cc1ccc([C@@H]2[C@@H]3C(=O)N(C)C(=O)[C@@H]3[C@]3(C)C(=O)N(Cc4ccc(-c5ccccc5)cc4)CC(=O)N23)o1	1%
COc1ccc(Oc2c(-c3ccc(O)cc3O)n[nH]c2C)cc1	6%
O=C(NCC1COc2ccccc2O1)c1ccc(Cl)cc1 (stereo not given)	-3%

More results.
mol	VDR inh
Cc1cccc(OC(=O)c2cccnc2)c1	4%
CCN(C1CCCCC1)S(=O)(=O)c1ccc(-n2cnnn2)c(C)c1	13%
CN[C@H](CC(=O)O)C(=O)O	-1%&-11%&14%&3%
Cc1nccc(-c2cccc(N/N=C(\C#N)C(=O)c3ccccc3)c2)n1	-11%
CCn1cc(C(=O)N[C@H](C)c2ccccc2)c(=O)c2cc(F)c(N3CCN(C)CC3)cc21	-8%
CSc1nncc(/C(C)=N\Nc2ccccc2C)n1	-16%
C/C(=N/NC(=O)CNC(=O)COc1cccc(C)c1)c1ccc(Cl)cc1	3%
O=C(CSC1=NCCS1)Nc1ccc(S(=O)(=O)NC2CCCCC2)cc1	-11%

Some of these compounds in order of SMILES length, largest number first:
mol	VDR inh
CCn1cc(C(=O)N[C@H](C)c2ccccc2)c(=O)c2cc(F)c(N3CCN(C)CC3)cc21	-8%
Cc1nccc(-c2cccc(N/N=C(\C#N)C(=O)c3ccccc3)c2)n1	-11%
CSc1nncc(/C(C)=N\Nc2ccccc2C)n1	-16%

(list continues)
mol	VDR inh
CCOCCCNC(=O)Cn1ncc2c([nH]c3ccccc32)c1=O	-7%
CCOC(=O)c1cccc(NS(=O)(=O)c2ccc(NC(C)=O)cc2)c1	-1%
Cc1ccc(C(=O)N2CCN(S(=O)(=O)N3CCCCC3)CC2)cc1	9%
COc1ccc(NC(=O)/C(C#N)=C/c2cc(C)n(-c3ccc(N4CCOCC4)c([N+](=O)[O-])c3)c2C)cc1	-20%
Cc1cc(=O)oc2cc(NC(=O)CCOc3ccccc3)ccc12	5%
CCOC(=O)c1nc(N)c(=O)n(-c2ccc(C)cc2)n1	4%
Cc1cccc(C)c1OCCCn1ccnc1	-4%
O=C(NCc1cccnc1)C1CCCN(S(=O)(=O)c2ccccc2)C1 (stereo not given)	-7%
Cc1cc(C)cc(NC(=O)COC(=O)c2n[nH]c3ccccc23)c1	-6%
COc1ccc(OC)c(C2Nc3c(Cl)ccc(C(=O)O)c3C3C=CCC32)c1 (stereo not given)	6%
O=C1S/C(=C\c2ccc(N3CCOCC3)o2)C(=O)N1c1ccccc1	?
O=[N+]([O-])c1ccc(NCc2ccncc2)cc1	0%
CCCc1nc2ccccc2c(C(=O)OC(C)C(=O)NCc2ccc3c(c2)OCO3)c1CC (stereo not given)	-4%
Cc1cc(C(=O)N2CCOCC2)c(C)o1	-18%
CN(CCC#N)C(=O)COC(=O)c1ccc(Cl)c(S(N)(=O)=O)c1	-4%
CCOC(=O)c1cc(-c2cccs2)nc2onc(C)c12	28%

3 entries from above, reformatted.
Molecule: COc1ccc(CNC(=O)CSc2ncc3c(n2)-c2ccc(Cl)cc2N(Cc2ccccc2)S3(=O)=O)cc1
  VDR inh: 4%
Molecule: Cc1ccc(S(=O)(=O)N(C)CC(=O)NCC(=O)Nc2ccc(F)c(F)c2F)cc1
  VDR inh: 6%
Molecule: N#CC1=C(N)Oc2cc(O)ccc2C1c1ccc(Br)s1 (stereo not given)
  VDR inh: -16%

Other entries:
mol	VDR inh
CCC(=O)Nc1nc(C)c(-c2csc(Nc3cccc(O)c3)n2)s1	-20%
CN1CCN(c2ccc(-c3cccc(NC(=O)COc4ccc(Cl)cc4)c3)nn2)CC1	2%
O=C(O)CCCC(=O)Nc1ccc(Cl)c(Cl)c1	10%
Cc1nn(CCC(=O)N2CCN(c3ccccc3F)CC2)c(C)c1S(=O)(=O)N1CCCC1	-6%
Cc1ccc(S(=O)(=O)CCSc2ccc(C(F)(F)F)cn2)cc1	9%
COCCN(C(=O)C1CCCC1)c1c(N)n(Cc2ccccc2)c(=O)[nH]c1=O	-10%
COc1ccc(C(=O)N2CCc3cc(OC)c(OC)cc3C2c2ccc(OC)c(OC)c2)cc1 (stereo not given)	5%
CCOC(=O)C1=C(C)Nc2nnnn2C1c1cccnc1 (stereo not given)	?
CCOC(=O)C(C(=O)OCC)C(=O)c1cc(OC)c(OC)c(OC)c1	-11%
Cc1cc(N2CCN(c3ccccc3F)CC2)n2cnnc2n1	9%
CC(=O)c1cccc(NC(=O)c2nc3ccccc3n(C)c2=O)c1	-3%
COc1ccccc1OCC(=O)N1CCC(c2nc3ccccc3o2)CC1	12%
COCCNC(=S)N(c1ccccc1)C(C)C	14%

Only part of the results is shown; rates above refer to the full screens.
